Screening data: PubChem BioAssay, National Center for Advancing Translational Sciences (NCATS)
LASV entry inh: blocks Lassa virus binding to or entry into cells; Potency, µM (highest dose often 37.9 µM), inactives show at the highest dose activity change, negative = inhibition, hits mostly inhibitors; actives 1.2% (n = 300,000); Lassa virus pseudotype entry inhibition, cell reporter; control for the full effect not named in the record; AID 540256; active means well fitted inhibition curve with a large enough effect; inconclusive means small, poorly fitted or top-dose-only effect, or effect the other way; inactive means flat fitted curve, though single readings scatter; tested in HEK293 cells; note: % is set by controls: 0 for no effect and ±100 for the full control effect; nearly all actives have a fitted effect of over 50% in size; luciferase read-out
MARV entry inh: inhibitors of Marburg virus binding or cell entry; Potency, µM (doses to about 37.8 µM), for inactives: at the highest dose activity change, negative = inhibition, most hits filed as inhibitors; AID 540276; Marburg virus pseudotyped entry inhibition, cell reporter; control for the full effect not named in the record; about a third of the inactives were read at about 46 µM; actives 1.8% (n = 300,000); active = well fitted inhibition curve with a large enough effect; inconclusive = small, poorly fitted or top-dose-only effect, or effect the other way; inactive = flat fitted curve, though single readings scatter; tested in HEK293 cells; about a fifth of its hits are not listed in these tables; note: % is set by controls: 0 for no effect and ±100 for the full control effect; luciferase read-out
RE007 growth inh: less growth of the S. pombe RE007 Vpr strain; S. pombe RE007 Vpr strain, BacTiter-Glo ATP luminescence, 24 h; control for the full effect not named in the record; Potency, µM (highest dose often 92.2 µM), without a hit: at the top dose activity change, negative = less growth; actives 0.21% (n = 360,000); active = well fitted falling curve with a large enough effect; inconclusive = small, poorly fitted or top-dose-only effect; inactive = no such curve, though single readings can be large or run the other way;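 note: % is set by controls: 0 for no effect and ±100 for the full control effect; nearly all actives have a fitted effect of over 50% in size; the assay follows cell death caused by Vpr and the record does not say whether a fall means rescue or toxicity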
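Fission yeast RE007 carrying one integrated HIV-1 vpr copy, seeded at OD 0.01 in PMG+AL medium with 23 nL pinned compound. Grown 24 h at 30 degrees; viability read by BacTiter-Glo luminescence after 5 min.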
SARS PLP yeast: SARS-CoV PLP inhibition in yeast; S. cerevisiae expressing SARS-CoV PLpro, growth rescue; control for the full effect not named in the record; Potency, µM (series often up to 32.9 µM), without a hit: at the top dose activity, positive = growth rescue; actives 0.19% (n = 330,000); AID 485353; note: 0% is about no effect; nearly all actives have a fitted effect of over 55% in size; growth read by luminescence after 48 h
Cruzain inh Det: cruzain (T. cruzi) inhibition with detergent. P25779. AID 1478. Potency, µM, for the others: max response, negative = inhibition, usual class: inhibitors. purified cruzain, Z-FR-AMC fluorescence, 0.01% Triton. actives 0.43% (n = 200,000); active = well fitted curve in the direction sought with a large enough effect; inconclusive = small, poorly fitted or top-dose-only effect, or another doubt; inactive = no such curve, though single readings can be large; an effect the other way counts as inactive or inconclusive;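 note: plate controls were neutral wells for no effect and buffer without enzyme for full effect; nearly all actives have a fitted effect of over 40% in size; top concentration of the series not given in the record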
Target sequence (P25779 123-467 limits assumed): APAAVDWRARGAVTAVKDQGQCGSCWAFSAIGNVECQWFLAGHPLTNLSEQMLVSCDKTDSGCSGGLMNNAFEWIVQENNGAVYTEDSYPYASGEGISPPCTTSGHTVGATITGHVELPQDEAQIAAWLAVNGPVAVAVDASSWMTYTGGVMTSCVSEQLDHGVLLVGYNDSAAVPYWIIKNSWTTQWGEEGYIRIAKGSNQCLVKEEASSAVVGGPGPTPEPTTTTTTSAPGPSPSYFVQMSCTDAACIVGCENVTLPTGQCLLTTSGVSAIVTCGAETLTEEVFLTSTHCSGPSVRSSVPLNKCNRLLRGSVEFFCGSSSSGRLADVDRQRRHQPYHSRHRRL
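Cysteine protease activity tested under reducing, mildly acidic conditions (100 mM sodium acetate pH 5.5, 5 mM DTT) plus 0.01% Triton X-100. Cruzain 1.5 nM; substrate Z-FR-AMC 2 uM; 15 min compound preincubation at room temperature.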
Cruzain inh noDet: inhibitors of Trypanosoma cruzi cruzain without detergent; purified cruzain, Z-FR-AMC fluorescence, no detergent; P25779; actives 2.3% (n = 200,000); Potency, µM, for inactives: max response, negative = inhibition, most hits filed as inhibitors; AID 1476; active = well fitted curve in the direction sought with a large enough effect; inconclusive = small, poorly fitted or top-dose-only effect, or another doubt; inactive = no such curve, though single readings can be large; an effect the other way counts as inactive or inconclusive;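 note: plate controls were enzyme without inhibitor for no effect and buffer without enzyme for full effect; nearly all actives have a fitted effect of over 40% in size; top concentration of the series not given in the record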
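Detergent-free condition (0.00005% Triton X-100) in acetate buffer pH 5.5 with DTT. 1.5 nM enzyme and compound were pre-mixed 15 min, then 2 uM Z-FR-AMC substrate added; reaction progress from fluorescence change between first and third reads (60 s).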
NS1 inh: blocks influenza NS1 protein function; Potency, µM (highest dose often 46.1 µM), inactives show at the top dose activity, positive = more growth; S. cerevisiae slowed by influenza A NS1, growth recovery by OD600; actives 0.4% (n = 270,000); AID 2326; note: actives are rising curves; nearly all actives have a fitted effect of over 50% in size
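Read-out: OD600 growth recovery of NS1-expressing budding yeast. Cells grown overnight at 30C in -URA glucose medium, washed, resuspended and diluted 1:100 in 2% galactose assay medium, pH 6.0. Same strain lacking NS1 served as positive control.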
StopGo reporter: FMDV 2A StopGo reporter, luciferase signal; human cells with a luciferase reporter of 2A StopGo recoding; control for the full effect not named in the record; actives 1.2% (n = 410,000); Potency, µM (top dose mostly 57.9 µM), without a hit: top-dose signal change, negative = less light; active = well fitted falling curve with a large enough effect; inconclusive = small, poorly fitted or top-dose-only effect; inactive = no such curve, though single readings can be large or run the other way; tested in HEK293T cells; note: % is set by controls: 0 for no effect and ±100 for the full control effect; nearly all actives have a fitted effect of over 45% in size; luciferase light after 4 h
* marks the source's active call; other numbers are inactive results; ? = inconclusive; / = no result given; & = joins results of further samples; [ ] = dose if it differs, or a comment. Unless noted, calls come from the whole dose curve; as a rule, active means well fitted rising curve with a large enough effect; inconclusive means small, poorly fitted or top-dose-only effect; inactive means no such curve, though single readings can be large or run the other way. Potency is the fitted concentration of half-maximal effect.

SMILES	LASV entry inh	MARV entry inh	RE007 growth inh	SARS PLP yeast	Cruzain inh Det	Cruzain inh noDet	NS1 inh	StopGo reporter
O=C(Nc1cccc(S(=O)(=O)N2CCCCCC2)c1)c1cc(=O)c2ccccc2o1	-7%	?	-7%	-3%	/	/	/	20µM*
COc1ccc(NC(=O)CCNS(=O)(=O)c2ccc3c(c2)CCC(=O)N3)cc1	2%	-8%	-16%	-1%	6.8%	1%	20%	17%
CCN(CC)C(=O)N1c2ccccc2C=Cc2ccccc21	0.63µM*	1.1µM*	12%	-12%	0.8%	-6%	13%	?
CCc1cccc(-n2nnc(-c3nc(-c4ccc5c(c4)OCO5)no3)c2C)c1	22%[46.1 µM]	/	/	/	1.1%	-10%	/	11%
O=C(NCCCN1CCOCC1)c1ccc2c(c1)N(Cc1ccc(Cl)cc1)C(=O)c1ccccc1S2=O (stereo not given)	/	/	10%	17%	/	/	?	-2%
COC12NC(=O)N(C)C1(OC)C(=O)N(C)C(=O)N2C (stereo not given)	?	19%	0%	18%	-0.2%	-4%	11%	-20%
Cc1ccc(NC(=O)c2ccco2)c(NC(=O)c2cccs2)c1	2%	5%	5%	1%	0.3%	-1%	2%	/
COc1ccc(CN2CC(C(=O)NCCC3=CCCCC3)CC2=O)cc1 (stereo not given)	-11%	-21%	-7%	-1%	1.4%	3%	-7%	/
CN(Cc1nnc(-c2ccc(F)cc2)o1)c1ccccc1	1%	-11%	-2%	-3%	/	/	-4%	24%
CC(=O)Nc1ccc(Nc2nc(C)nc3c2oc2ccccc23)cc1	?	?	2%	1%	-3.7%	16%	-2%	?
COC(=O)c1cc(-c2c(C)nn(-c3ccccc3)c2C)n[nH]1	7%	15%	12%	-2%	3.2%	-5%	-52%	19%
O=C(O)CCC(=O)NNc1ccccc1[N+](=O)[O-]	3%	6%	9%	-2%	-2.3%	-3%	-4%	0%
C1CC2OC2CC1C1CO1 (stereo not given)	/	-1%	6%	?	2.6%	4%	/	-24%
Cc1cc(NS(=O)(=O)c2ccc(NC(=O)COc3cc(C)c(Br)cc3C(C)C)cc2)no1	?	8%[46.1 µM]	/	/	?	8%	/	-4%
O=C1C(=O)c2ccccc2C(O)=C1c1ccccc1F	4%	-14%	-25%	-6%	/	/	-108%	?
COc1ccc(C(=O)Nc2ccccc2C(=O)Nc2ccncc2)cc1	-20%	?	-21%	-1%	/	/	-5%	7%
COc1ccc(/C=C/C(=O)NC(=S)Nc2ccc(S(=O)(=O)Nc3cc(OC)ncn3)cc2)cc1	0%[46.1 µM]	?	8%	0%	/	/	/	29%
O=C(COc1cc(Cl)c(Cl)cc1Cl)N1CCN(c2ccccn2)CC1	-7%[46.1 µM]	?	8%	1%	/	/	/	0%
COC(=O)c1ccc(C(=O)OCCCc2nc3ccc(N)cc3[nH]2)cc1	7%	8%	2%	-7%	-0.3%	-2%	16%	-10%
O=C1CC(N2CCN(Cc3ccc4c(c3)OCO4)CC2)C(=O)N1c1ccccc1 (stereo not given)	-4%	13%	-4%	-2%	-9.8%	-11%	9%	17%
Cc1cccc(NC(c2ccc(O)cc2)c2ccc3ccc(C)nc3c2O)n1 (stereo not given)	21µM*	-2%	-1%	-2%	1.3%	0%	11%	-13%
Cc1nc(SCCc2ccccc2)[nH]c(=O)c1C	/	/	0%	-4%	/	/	-7%	30%[activator]
O=c1cc(N2CCCCC2)c(-c2ccccc2)nn1Cc1ccccc1	1%	0%[46.1 µM]	-3%	-17%	/	/	/	?
CCOC(=O)c1csc(NC(=O)c2ccc(S(=O)(=O)N(C)C)cc2)n1	-16%	-3%&-21%	-6%	-6%	4.4%	4%	2%	/
CCOc1cccc(-c2nn3c(-c4ccco4)nnc3s2)c1	8%	24%&24%	5%	-6%	-5.7%	8%	-3%	41%[activator]
Additional records
SMILES	LASV entry inh	MARV entry inh	RE007 growth inh	SARS PLP yeast	Cruzain inh Det	Cruzain inh noDet	NS1 inh	StopGo reporter
CCCSc1nc2c(c(=O)[nH]c(=O)n2C)n1Cc1ccc(C)cc1	-11%	-12%	-16%	2%	-0.2%	-23%	13%	-23%
NC(=O)c1ccc(C23CC4CC(CC(C4)C2)C3)o1	?	-8%	23%	-40%	-1.3%	7%	-39%	-5%
CCOc1ccc(C2N(c3ccc(Cl)cc3)C(=O)C3CCCN32)cc1OC (stereo not given)	/	/	-12%	-18%	0.3%	?	7.9µM*	-17%
COc1ccc(CNC(=O)c2ccc3c(c2)N(Cc2ccccc2)C(=O)c2ccccc2S3(=O)=O)cc1	-1%[46.1 µM]	?	/	/	0.5%	?	/	34%[activator]
Cc1ccc(C(=O)CC2(O)C(=O)N(CN3CCOCC3)c3ccccc32)cc1 (stereo not given)	1%	7%&7%[46.1 µM]	9%	5%	-2.5%	8%	2%	20%
O=C(CSc1nnc(CNC(=O)c2ccco2)o1)Nc1ccc(OC(F)(F)F)cc1	/	/	26%	2%	/	/	10%	-29%
Cc1ccc(CSc2c(C)cnc3c2c(=O)n(C)c(=O)n3C)cc1	22%[46.1 µM]	/	/	/	0.1%	-9%	/	-27%
Cc1ccc(S(=O)(=O)NCCC(c2ccc(F)cc2)c2ccco2)cc1 (stereo not given)	?	?	/	16%	-7.0%	27%	10%	19%
CCCCS(=O)(=O)NC1=NCN(CCOC(=O)c2ccccc2)CN1	13%	15%	3%	/	/	/	17%	10%
C=CCc1cccc2cc(C(=O)NC(C)(C)C)c(=O)oc12	-2%	?	23%	0%	1.4%	-8%	5%	-11%
CC(C)NC(=O)CSc1nc2ccccc2c(=O)n1CCCOC(C)C	-18%	21%	-12%	-2%	3.6%	9%	-3%	/
CCN(CC(=O)Nc1ccc2c(c1)OCCO2)C(=O)CC1CCCC1	0%	-29%[46.1 µM]	14%	4%	3.5%	-3%	1%	1%
O=C(CC(=O)Nc1ccccc1F)Nc1ccc2nc3n(c(=O)c2c1)CCCCC3	12%[46.1 µM]	8%[46.1 µM]	/	/	-2.7%	6%	/	-2%
Cc1c(C(=O)N2CCN(Cc3ccccc3)CC2)oc2c1C(=O)CC(C)(C)C2	?	16%[46.1 µM]	-16%	2%	/	/	3%	4%
Cc1ccc(NNC(=O)c2snnc2C)cc1Cl	-5%	-8%[46.1 µM]	12%	-3%	/	/	-30%	28%
O=C(O)c1cccc(S(=O)(=O)Nc2ccc(-c3ccccc3)cc2)c1	4%	9%	-4%	9%	/	/	/	0%
Cc1cccc(-n2c(C)cc(C(=O)C(=O)Nc3ccccc3F)c2C)c1C	12%[46.1 µM]	5%[46.1 µM]	/	/	-16%	-28%	/	0%
COc1ccc(CCc2nc(-c3ccc(-n4cccc4)cc3)no2)cc1	/	/	0%	0%	-1.1%	-28%	6%	?
COC(=O)c1ccc(-c2noc(CN(C)CCC3CCCCO3)n2)cc1 (stereo not given)	-23%[46.1 µM]	8%[46.1 µM]	-3%	-7%	/	/	-49%	-15%
CC(C)N(Cc1cc2ccccc2[nH]c1=O)C(=O)C(C)(C)C	-2%	12%	-1%	-7%	-0.8%	3%	-2%	0%
C/C(=N\NC(=O)c1ccccc1O)C1CC1	-28%[46.1 µM]	-5%[46.1 µM]	1%	-7%	/	/	-15%	24%
CCOC(=O)C1=C(C)C(c2ccccc2)NC(=S)N1 (stereo not given)	16%	-13%	-14%	0%	1.2%	-1%	8%	-15%
O=C(O)CCC(=O)NNC(=O)CCC(=O)Nc1ccccc1	7%	20%[46.1 µM]	-16%	1%	/	/	3%	-2%
Cc1cc(C)c(C)c(Cn2c(CO)nc3ccccc32)c1C	6%	?	20%	-10%	-8.6%	2%	-9%	0%
CCCN(CC(=O)Nc1ccccc1OC)C(=O)CNC(=O)c1ccc(C)s1	-2%	-1%	4%	/	/	/	/	-2%
The listing continues.
SMILES	LASV entry inh	MARV entry inh	RE007 growth inh	SARS PLP yeast	Cruzain inh Det	Cruzain inh noDet	NS1 inh	StopGo reporter
CCOc1ccc(OCC)c(NC(=O)C2CCN(S(=O)(=O)c3c(C)noc3/C=C/c3ccccc3F)CC2)c1	23%[46.1 µM]	/	/	/	-1.2%	-3%	/	-18%
COCCN1C(=O)C(=O)/C(=C(/O)c2ccc(S(=O)(=O)N3CCCCC3)cc2)C1c1ccc(OC)cc1 (stereo not given)	/	/	7%	9%	/	/	-6%	-13%
COc1ccc(Nc2cc(C(=O)NCc3ccccc3)c3ccccc3n2)c(OC)c1	?	?	/	/	-8.4%	3%	/	15%
CCCn1c(N2CCN(CC(=O)c3c[nH]c4ccccc34)CC2)nc2c1c(=O)[nH]c(=O)n2C	?	?	-11%	4%	-1.4%	-10%	3%	?
CC(=O)Nc1cccc(NC(=O)CSc2nnc3ccc(-c4ccccn4)nn23)c1	?	26%	-6%	2%	/	/	/	-10%
CNc1nc2c(C)cccn2c(=O)c1C=Nc1ccc(OC)cc1	/	/	-10%	-1%	/	/	-5%	32%[activator]
COc1ccc(-n2cc(-c3ccccc3)c3c(Nc4ccc(OC)c(OC)c4)ncnc32)cc1	14%[46.1 µM]	/	/	/	-0.9%	2%	/	-18%
O=C(Cc1c(O)c2ccccc2[nH]c1=O)N(Cc1ccccc1)Cc1ccccc1	-9%	12%	6%	-2%	-2.6%	-3%	2%	-16%
O=C(Nc1nc2c(F)cccc2s1)c1ccc(S(=O)(=O)N2CCOCC2)cc1	5%[46.1 µM]	/	/	/	-0.1%	12%	/	-9%
CC(C)c1ccc(/C=C(\NC(=O)c2ccccc2)C(=O)NCCCN2CCOCC2)cc1	9%	-18%[46.1 µM]	-7%	2%	/	/	2%	0%
COc1ccc(CCNC(=O)CSc2nnc(CNC(=O)c3ccccc3F)o2)cc1OC	5%	6%	7%	2%	4.7%	3%	-4%	7%
CCOC(=O)Cc1csc(SCC(=O)N2CCN(c3ccccc3)CC2)n1	-8%	2%	1%	-4%	/	/	/	?
COC(=O)c1cccc(NC(=O)CSc2nnc(C3CC3)n2C)c1	28%	15%[46.1 µM]	9%	-1%	/	/	4%	10%

Not a hit list (roughly 4.7% active in at least one column).
